ClpP mod: qHTS Assay for Activators of ClpP; ATP-dependent Clp protease proteolytic subunit (Bacillus subtilis (strain 168)), P80244; purified B. subtilis ClpP, FRET peptide cleavage, 20 min; Potency, µM (series often up to 57.5 µM), for the others: at the highest dose activity change, negative = active; actives 1.9% (n = 340,000); AID 651965, 2013; active = well fitted falling curve with a large enough effect; inconclusive = small, poorly fitted or top-dose-only effect; inactive = no such curve, though single readings can be large or run the other way; also: potency is read from the fitted curve at half-maximal effect; the source files actives as falling curves though it sought activators and does not explain the sign; nearly all actives have a fitted effect of over 65% in size; many hits overshoot -100%
Target sequence (P80244 whole entry, looked up): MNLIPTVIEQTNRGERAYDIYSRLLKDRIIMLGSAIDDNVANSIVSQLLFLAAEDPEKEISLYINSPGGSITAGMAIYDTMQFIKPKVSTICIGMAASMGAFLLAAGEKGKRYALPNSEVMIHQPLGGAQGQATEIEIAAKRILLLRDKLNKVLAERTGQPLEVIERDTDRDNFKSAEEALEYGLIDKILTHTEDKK
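Purified B. subtilis ClpP, 10 microg/mL final in Tris/HCl pH8 with KCl, BSA, glycerol and Tween-20, cleaved an Abz/nitrotyrosine-quenched decapeptide. Fluorescence (ex 320, em 430) was read at 0 and 20 min at room temperature. Delta was normalized to 5.8 microM ADEP and DMSO/no-enzyme controls.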
Menin-MLL FL inh: menin-MLL binding inhibition, fluorescein peptide. Fluorescence polarization, fluorescein-MLL peptide displacement from menin. FP activity change, % at 61.4 µM. 290,000 tested, under 10 active; inconclusive = falling polarisation curve, or a change in total fluorescence; inactive = total fluorescence flat and polarisation flat or rising; no compound was filed as active; the % refers to the polarisation; negative = inhibition;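 also: % of control where 0% means no effect; inhibitors lower the polarisation; unlabelled MLL peptide was the positive control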
TRPV1 potentiator: enhances activation of the human vanilloid receptor TRPV1 | TRPV1-expressing cells, Fluo-8 calcium influx, capsaicin EC20 potentiation; host cell line not named in the record; control for the full effect not named in the record | AID 540277 | actives 0.02% (n = 320,000) | potentiation, % at 8.33 µM | Q8NER1; active means potentiation above 80%; inconclusive means 30% to 80%; inactive means below 30%; also: 0% is about no effect
Target sequence (Q8NER1 whole entry, looked up): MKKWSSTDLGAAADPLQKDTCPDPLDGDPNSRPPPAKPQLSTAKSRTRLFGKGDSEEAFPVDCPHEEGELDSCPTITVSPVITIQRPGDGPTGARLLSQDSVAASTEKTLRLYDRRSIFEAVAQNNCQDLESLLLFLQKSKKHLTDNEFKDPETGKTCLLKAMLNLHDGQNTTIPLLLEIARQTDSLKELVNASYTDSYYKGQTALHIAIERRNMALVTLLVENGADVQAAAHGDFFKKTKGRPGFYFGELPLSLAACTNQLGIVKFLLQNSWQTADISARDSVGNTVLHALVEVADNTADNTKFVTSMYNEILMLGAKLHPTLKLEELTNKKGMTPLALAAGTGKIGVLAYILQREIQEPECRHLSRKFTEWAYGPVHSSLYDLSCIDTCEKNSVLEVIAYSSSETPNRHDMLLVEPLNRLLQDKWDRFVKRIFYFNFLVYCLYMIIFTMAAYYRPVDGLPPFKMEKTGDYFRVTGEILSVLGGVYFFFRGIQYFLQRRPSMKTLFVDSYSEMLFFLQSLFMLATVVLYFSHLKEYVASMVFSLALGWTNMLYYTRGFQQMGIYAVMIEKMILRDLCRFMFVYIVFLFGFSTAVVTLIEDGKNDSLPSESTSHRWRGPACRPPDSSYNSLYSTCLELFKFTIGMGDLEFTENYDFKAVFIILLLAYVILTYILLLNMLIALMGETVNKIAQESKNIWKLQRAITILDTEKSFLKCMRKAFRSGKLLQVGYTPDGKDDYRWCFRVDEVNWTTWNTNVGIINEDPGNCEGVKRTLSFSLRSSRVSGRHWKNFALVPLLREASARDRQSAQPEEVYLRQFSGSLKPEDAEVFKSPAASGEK
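Fluo-8 calcium influx in TRPV1-expressing cells, kinetic read (ex 480/em 520 nm). Compound added and read 3 min for agonist activity, followed by capsaicin at EC20 final and 2 min further read for enhancement.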
Sfp PPTase inh: Sfp phosphopantetheinyl transferase inhibition; actives 3.5% (n = 310,000); AID 1490; Potency, µM, without a hit: max response, negative = inhibition, actives largely listed as inhibitors; Biochemical Sfp PPTase activity, qHTS; active = well fitted inhibition curve with a large enough effect; inconclusive = small, poorly fitted or top-dose-only effect, or another doubt; inactive = no such curve, though single readings can be large or run the other way;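 also: the enzyme is Sfp with the accession as filed and its product quenches rhodamine fluorescence; potency is read from the fitted curve at half-maximal effect; 0% = enzyme reaction without inhibitor and -100% = no enzyme wells; top concentration of the series not given in the record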
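Fluorescence-quenching assay with 15 nM Sfp, 5 uM rhodamine-CoA and 12.5 uM BHQ-2-labelled ybbR peptide in pH 7.6 Hepes/MgCl2 buffer. Enzyme was pre-incubated with compound for 15 min at room temperature. Rate was taken from the 30-min fluorescence change (525/598 nm).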
gsp agonist: agonists of gsp mutant (McCune-Albright syndrome); gsp mutant cells, cAMP HTRF, 30 min; control for the full effect not named in the record; Potency, µM (doses to about 76.9 µM), for the others: at the top dose activation (cAMP increase), hits mostly activators; actives 0.13% (n = 340,000); active = well fitted activation curve with a large enough effect; inconclusive = small, poorly fitted or top-dose-only effect, or another doubt; inactive = no such curve, though single readings can be large or run the other way; cell line not stated here;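 also: phosphodiesterase inhibitor Ro 20-1724 added with compounds to block cAMP breakdown; potency is read from the fitted curve at half-maximal effect; nearly all actives have a fitted effect of over 60% in size; about a fifth of the inactives were tested at one dose only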
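Cells in DMEM/10% FBS with G418 were pretreated with compounds in DMSO plus […] (300 uM stock) for 30 min at 37C. cAMP was measured by HTRF (cAMP-d2 plus anti-cAMP antibody-K) after 30 min at room temperature.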
gsp antag: antagonists of gsp mutant (McCune-Albright syndrome). gsp-mutant cells, cAMP HTRF, 30 min; control for the full effect not named in the record. actives 0.4% (n = 340,000). Potency, µM (titrated, usually from 76.9 µM), for the others: at the highest dose activity change, negative = inhibition, usual class: inhibitors; active = falling curve of any shape with a large fitted effect; inconclusive = falling curve, mostly with a smaller effect; inactive = flat or rising curve; cell line not stated here;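 also: intracellular cAMP measured with PDE inhibitor Ro 20-1724 present during compound exposure; potency is read from the fitted curve at half-maximal effect; % is scaled to controls: 0 for no effect and ±100 for the full control effect; nearly all actives have a fitted effect of over 65% in size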
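G418-selected cells were plated in DMEM/10% FBS for 16-24 h at 37C, then treated with compounds plus the PDE inhibitor […] (300 uM solution added) for 30 min at 37C. Intracellular cAMP was measured by HTRF after 30 min lysis at room temperature.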
CtBP-E1A blk: inhibitors of CtBP/E1A interaction; AlphaScreen GST-E1A/His-CtBP binding, 1536-well; hits give low values; control for the full effect not named in the record; activity change, % (test concentration not listed); actives 0.49% (n = 340,000); in the data active means activity change below about -65%; inconclusive means about -30% to -65%; inactive means above about -30%; also: % is scaled to controls: 0 for no effect and ±100 for the full control effect; compound concentration not given in the record
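Steps: dispense buffer (Tris pH 8.0, NaCl 300 mM, TCEP 1 mM, BSA, Tween 20); add 5X protein mix (GST-E1A, His-CtBP, 125 nM each); pin 23 nL compound; 2 h at 37 °C, dark; add 5X beads (50 ug/mL); 1 h; read.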
The depositor's hits bear a star; u = inconclusive; x = not tested or not shown; & = joins results of further samples; [ ] = remark or other dose.

SMILES	ClpP mod	Menin-MLL FL inh	TRPV1 potentiator	Sfp PPTase inh	gsp agonist	gsp antag	CtBP-E1A blk
CCc1ccc(CN(C(=O)c2cccs2)C2CCS(=O)(=O)C2)cc1 (stereo not given)	-14%	3.2	17	7%	7%[15.4 µM]	-7%	3
Cc1ccc(-n2nnnc2Sc2nc([N+](=O)[O-])nn2C)c(C)c1	-0.4%	x	x	x	10%	-1%	4
CN(C)c1cccc(C(=O)N2CCCC(C(=O)c3cc(F)ccc3F)C2)c1 (stereo not given)	x	1.6	-17	13%	-1%[15.4 µM]	-23%	-12
Cc1nsc2nc3c(F)c(F)c(F)c(F)c3cc12	x	0.1	2	-18%	-1%	-23%	4
COc1ccc(C(=O)N/C(=C\c2ccco2)C(=O)NCCN2CCOCC2)cc1	x	-1.7	5	12%	-1%[15.4 µM]	3%	-4
CC(=O)Nc1ccc(NC(=O)CSc2nnc3ccc(-c4cccnc4)nn23)cc1	x	x	-7	x	9%[15.4 µM]	15%	-12
COc1ccc(NC(=O)C(c2ccc(OC)cc2)N(Cc2ccco2)C(=O)CC2NC(=O)NC2=O)cc1 (stereo not given)	x	6.0	3	4%	-10%[15.4 µM]	7%	-4
CC(C)CN(C(=O)CN1CCN(S(=O)(=O)c2ccc3ccccc3c2)CC1)c1c(N)n(CC(C)C)c(=O)[nH]c1=O	-0.9%	1.9	u	-1%	13%[15.4 µM]	2%	-6
COc1ccccc1C(=O)OCC(=O)Nc1ccccc1OC(F)F	-15%	-1.4	16	9%	u	4%	x
COc1ccc(-n2c(O)c(C=Nc3ccccc3)c3ccccc3c2=O)cc1	x	1.1	1	2%	8%	8%	4
CCSc1nnc(NC(=O)CSc2nnc(Cc3cccn3C)n2-c2ccc(F)cc2)s1	0.8%	5.5	7	4%	-2%	-17%	-19
Cc1cnccc1CNC(=O)C1CCC(=O)N(Cc2ccc(Cl)cc2)C1 (stereo not given)	0.1%	-0.3	-9	10%	34%	11%	8
COc1ccc(Cl)cc1N(C)C(=O)CCc1nc(-c2ccc(C)cc2)no1	1.1%	6.2	-8	-13%	-33%[inhibitor]	-14%	6
O=S1(=O)CCN(C2CC2)CC1	0.1%	x	x	x	-1%	x	4
O=C(CC(CC(=O)c1ccccc1)c1ccco1)c1ccccc1	-1.2%	x	x	x	8%	x	5
O=C(Nc1cc([N+](=O)[O-])ccc1F)c1cccs1	1.0%	-0.7	3	-2%	-25%	-5%	-3
Cc1ccccc1NC(=S)NC(NC(=O)c1ccco1)C(Cl)(Cl)Cl (stereo not given)	-1.5%	2.0	9	-6%	20%[15.4 µM]	-1%	-5
Nc1ccccc1Nc1nc2ccccc2[nH]1	-2.9%	0.8	-11	3%	-23%[15.4 µM]	-26%	-5
O=C(O)c1cc(-c2ccc(O)cc2)on1	x	2.5	14	1%	-8%[15.4 µM]	2%	6
O=C(NC1CCCCC1)C1CCC(=O)N(C2CC2)C1 (stereo not given)	-0.9%	x	-11	9%	u	12%	2

The final 2 compounds of the section above lead into the next.
SMILES	ClpP mod	Menin-MLL FL inh	TRPV1 potentiator	Sfp PPTase inh	gsp agonist	gsp antag	CtBP-E1A blk
O=C(O)c1cc(-c2ccc(O)cc2)on1	x	2.5	14	1%	-8%[15.4 µM]	2%	6
O=C(NC1CCCCC1)C1CCC(=O)N(C2CC2)C1 (stereo not given)	-0.9%	x	-11	9%	u	12%	2
O/N=C/c1nc2cc(Cl)ccc2o1	x	0.6	7	3%	-3%[15.4 µM]	3%	5
COc1cccc(OC)c1C(=O)N1CCOCC1	-1.1%	0.4	12	7%	-24%	7%	-9
CCOc1ccc(C(=O)Nc2ccc(N3CCN(C)CC3)cc2)cc1[N+](=O)[O-]	x	-0.2	12	5%	u	6%	-4
CCCN(CC(=O)Nc1ccccc1OC)Cc1c(O)ccc2ccccc12	x	2.8	-13	-10%	11%[15.4 µM]	-11%	-7
CCNC(=O)/C(C#N)=C/c1c(N2CCN(c3ccccc3)CC2)nc2ccccn2c1=O	3.7%	4.9	-5	25%	u	0%	-11
COc1cc(Nc2cc(C)nc3ncnn23)cc(OC)c1	-0.7%	3.7	22	-5%	-23%	4%	-10
Cc1ccc(NC(=O)c2cc(N3C(=O)CCC3=O)ccc2N2CCCCC2)cc1	1.8%	3.6	4	16%	-81%[inhibitor]	2%	x
CCCCCCCOC(=O)c1nc(Cl)c(Cl)c(N)c1Cl	-1.9%	x	-4	5%	-18%[15.4 µM]	1%	1
O=C(Nc1ccc(O)cc1)/C(=C/c1ccco1)NC(=O)c1ccccc1	0.2%	3.8	0	2%	9%	-2%	x
Cc1cc(C)n(-c2ccc(Cl)c(C(=O)O)c2)n1	x	6.1	4	u	3%	8%	-5
O=C(NC(=O)c1cnccc1C(F)(F)F)Nc1ccccc1	x	-0.5	4	13%	3%[15.4 µM]	-3%	-2
CC(=O)CC(c1ccccc1)S(=O)(=O)c1ccc([N+](=O)[O-])cc1 (stereo not given)	x	0.6	3	9%	6%	8%	-12
CCOC(=O)C1CCN(C(=O)Nc2cc(Cl)cc(Cl)c2)CC1	x	5.3	-1	-10%	9%[15.4 µM]	u	8
CCn1cc(C(=O)N[C@@H](C)C(=O)NCCCN2CCOCC2)c(=O)c2cc3c(cc21)OCO3	3.4%	-2.8	-16	9%	3%	-10%	-9
C=CCNC(=O)C1CC(=O)N(c2ccc(OCC(=O)NCc3ccccc3)cc2)C1 (stereo not given)	1.3%	-1.0	-27	19%	25%	8%	0
Cc1nn(-c2ccc(N3CCOCC3)nn2)c(C)c1CCC(=O)NCc1ccccc1F	-0.5%&-2.5%	2.1	11	-5%	28%	16%	2
CCCCn1c(N)c(N(CCOC)C(=O)c2ccc(S(=O)(=O)N3CCC(C)CC3)cc2)c(=O)[nH]c1=O	x	x	9	x	-8%[15.4 µM]	8%	8
CN(N)C(=S)Nc1ccc(F)cc1	-1.7%	u	3	u	-39%[inhibitor]	8%	-2
CC1CCN(CC(O)Cn2c3ccccc3c3ccccc32)CC1 (stereo not given)	-1.1%	-4.1	1	-4%	-7%[15.4 µM]	-6%	4
O=C(O)C(Cc1ccccc1)N1C(=O)C2C3CCC(C3)C2C1=O (stereo not given)	-2.6%	x	x	x	-37%[inhibitor]	x	0

Some of the entries above in a different format:
> CC(=O)CC(c1ccccc1)S(=O)(=O)c1ccc([N+](=O)[O-])cc1 (stereo not given)
  ClpP mod: x
  Menin-MLL FL inh: 0.6
  TRPV1 potentiator: 3
  Sfp PPTase inh: 9%
  gsp agonist: 6%
  gsp antag: 8%
  CtBP-E1A blk: -12

> O=C(NC(=O)c1cnccc1C(F)(F)F)Nc1ccccc1
  ClpP mod: x
  Menin-MLL FL inh: -0.5
  TRPV1 potentiator: 4
  Sfp PPTase inh: 13%
  gsp agonist: 3%[15.4 µM]
  gsp antag: -3%
  CtBP-E1A blk: -2

> CCOc1ccc(C(=O)Nc2ccc(N3CCN(C)CC3)cc2)cc1[N+](=O)[O-]
  ClpP mod: x
  Menin-MLL FL inh: -0.2
  TRPV1 potentiator: 12
  Sfp PPTase inh: 5%
  gsp agonist: u
  gsp antag: 6%
  CtBP-E1A blk: -4

Going on with the list.
SMILES	ClpP mod	Menin-MLL FL inh	TRPV1 potentiator	Sfp PPTase inh	gsp agonist	gsp antag	CtBP-E1A blk
COc1ccc(S(=O)(=O)N2CCN(c3ccccc3OC)CC2)cc1C(=O)N1CCCCC1	x	-5.4	0	8%	1%[15.4 µM]	-10%	4
COc1ccc(N2CCN(c3ncnc4c3nnn4Cc3ccccc3Cl)CC2)cc1	-3.9%	3.6	-3	1%	5%	u	-3
COc1ccc(S(=O)(=O)Nc2c(C(=O)O)[nH]c3ccc(OC)cc23)c(OC)c1	-4.1%	0.6	7	25µM*	u	3%	x
CC(C)C(=O)NC(=S)/C=C1/N(C)c2ccccc2C1(C)C	0.2%	u	7	u	10%[15.4 µM]	3%	-12
CCCOc1ccc(/C(O)=C2/C(=O)C(=O)N(CCCn3ccnc3)C2c2cccnc2)cc1 (stereo not given)	x	3.8	-4	26%	u	18%	2
COc1ccccc1CNS(=O)(=O)c1ccc2c(c1)N(C(C)=O)CC(C)S2 (stereo not given)	x	x	-18	7%	-24%	1%	-2
COc1cccc(-c2nnc(SCC(=O)N3CCOCC3)o2)c1	-3.6%	1.4	-20	-10%	-5%	5%	-1
CC1(C(=O)O)C=CC2(CCCCC2)N1C(=O)c1ccccc1 (stereo not given)	-1.1%	1.6	9	22%	x	0%	3

Quoted at random: 5 records from the list
SMILES	ClpP mod	Menin-MLL FL inh	TRPV1 potentiator	Sfp PPTase inh	gsp agonist	gsp antag	CtBP-E1A blk
COc1ccccc1CNS(=O)(=O)c1ccc2c(c1)N(C(C)=O)CC(C)S2 (stereo not given)	x	x	-18	7%	-24%	1%	-2
COc1ccc(S(=O)(=O)N2CCN(c3ccccc3OC)CC2)cc1C(=O)N1CCCCC1	x	-5.4	0	8%	1%[15.4 µM]	-10%	4
CC1(C(=O)O)C=CC2(CCCCC2)N1C(=O)c1ccccc1 (stereo not given)	-1.1%	1.6	9	22%	x	0%	3
COc1ccc(N2CCN(c3ncnc4c3nnn4Cc3ccccc3Cl)CC2)cc1	-3.9%	3.6	-3	1%	5%	u	-3
CCCOc1ccc(/C(O)=C2/C(=O)C(=O)N(CCCn3ccnc3)C2c2cccnc2)cc1 (stereo not given)	x	3.8	-4	26%	u	18%	2
